# A1 inhib: inhibitors of A1; MEF A1-2A-BIM cells, caspase-Glo luminescence, 3 h; percent of clofoctol signal, DMSO as zero; caspase activation, % (concentration not given with the values); 21,000 compounds, 0.51% hits;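 active = most replicate scores above 10, or exactly half above 10 with mean activity above 10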;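 also: effector caspase 3 and 7 activity cleaving a DEVD luciferin substrate; 50 nL library stock added to about 30 µL; numbers are from one replicate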
# BJeLR viability: lowers viability of BJeLR cells | BJeLR fibroblasts viability, CellTiterGlo ATP luminescence, 48 h; HRASV12, hTERT and SV40 LT/ST transformed | viability loss activity score, % (concentration not given with the values) | 30,000 compounds, 0.64% hits; in the data active = viability loss activity score above about 50%; about a fifth of its hits are not listed in these tables;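 also: higher score means fewer live cells and less ATP luminescence; stock transfer was 50 or 100 nL into about 30 µL; 0% = vehicle wells and 100% = a reference killing control; one replicate is shown; the record names a cut of 85%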
# Numbers without * were called inactive; . = not tested or not shown.
SMILES,A1 inhib,BJeLR viability
S=c1cc(-c2ccccc2)ss1,-0.8,-2.5
c1ccc(-c2nc3ccccc3o2)cc1,-5.9,2.1
COc1ccc(CN(C)C[C@H]2Oc3ccc(NS(=O)(=O)c4ccccc4)cc3C(=O)N([C@@H](C)CO)C[C@H]2C)cc1,0.9,-6.3
C[C@H](CO)N1C[C@H](C)[C@H](CN(C)S(=O)(=O)c2ccc(Cl)cc2)Oc2c(NS(=O)(=O)c3ccccc3)cccc2C1=O,.,0.9
Cc1ccccc1-n1c(C)cc(/C=C2\NC(=O)NC2=O)c1C,.,-4.6
O=C(O)CC1(Cc2nc(-c3ccc(Cl)cc3)no2)CCCC1,-0.1,-0.4
COc1ccc(CN(Cc2cccn2C)C(=O)c2cc3cc(OC)ccc3[nH]2)cc1,.,0.6
CC1(CCO[C@H]2O[C@H](CO)[C@@H](O)[C@H](O)[C@H]2O)CCC2C(=CCC3[C@]2(C)CCC[C@@]3(C)C(=O)O)C1 (stereo partly drawn),0.4,7.2
C/C(=N\N)c1c(-c2ccccc2)c2cc(Br)ccc2[nH]c1=O,-0.4,-2.2
CC(=O)Oc1ccc(/C=C2/C(=N)N3C(=NC2=O)SN=C3SC(C)C)cc1,.,1.1
CC(C)(C)OC(=O)N[C@@H](Cc1ccccc1)c1n[nH]c(=S)o1,-0.5,-2.2
CS(=O)(=O)Nc1ccc([N+](=O)[O-])cc1OC1CCCCC1,-0.2,2.6
C[C@@H]1CN([C@@H](C)CO)C(=O)c2cc(NC(=O)C3CC3)ccc2O[C@H]1CN(C)C,0.4,1.2
c1ccc(-c2nnc(SCC3CCOCO3)n2-c2ccccc2)cc1 (stereo not drawn),0.1,8.7
CCCN(CCC)C(=O)c1ccc2c(Cl)c3c(nc2c1)CCCC3,.,-8.0
CCOc1ccc(NC(=O)NN2C(C)CCCC2C)cc1 (stereo not drawn),0.4,-4.1
COC(=O)C(C)Sc1ncnc2c1c(-c1ccccc1)cn2-c1ccc(OC)cc1 (stereo not drawn),.,1.7
C[C@H](CO)N1C[C@H](C)[C@@H](CN(C)S(=O)(=O)c2cccs2)Oc2ccc(NC(=O)CCCCCC(=O)Nc3ccccc3N)cc2C1=O,.,-4.4
CC(C)NC(=O)Nc1ccc2c(c1)C(=O)N([C@@H](C)CO)C[C@@H](C)[C@H](CN(C)S(=O)(=O)c1cn(C)cn1)O2,-0.1,-2.2
C[C@@H]1CN([C@H](C)CO)C(=O)c2cc(NC(=O)Cn3cnnn3)ccc2O[C@@H]1CN(C)Cc1ccc(Oc2ccccc2)cc1,-0.2,1.3
CCOC(=O)Cn1c(=O)oc2cc(S(=O)(=O)N3c4ccccc4CC3C)ccc21 (stereo not drawn),.,3.1
Cc1ccc(NC(=S)NN(C)C)cc1,0.4,-5.7
C[C@H]1CN([C@@H](C)CO)C(=O)c2cc(NC(=O)Nc3ccc(F)cc3)ccc2O[C@@H]1CN(C)S(=O)(=O)c1cccs1,-0.2,-5.3
Cn1c(CO)nc2ccccc21,0.4,2.4
C[C@H]1CN([C@@H](C)CO)C(=O)c2cccc(NC(=O)Nc3ccc4c(c3)OCO4)c2O[C@@H]1CN(C)Cc1ccc(-c2ccccc2)cc1,.,1.8
CCSC(SCC)=C(C#N)C(=O)Nc1ccccc1,0.8,-4.5
Cc1ccc(C)c(NS(=O)(=O)c2ccccc2)c1,-0.3,1.2
C[C@@H]1CN([C@@H](C)CO)C(=O)c2cccc(NC(=O)Nc3ccc(C(F)(F)F)cc3)c2O[C@H]1CN(C)Cc1ccc(C(F)(F)F)cc1,.,4.2
COc1ccc(CNC(=S)NN)cc1,-0.1,-0.5
C[C@@H]1CN([C@H](C)CO)C(=O)c2cc(NC(=O)Cc3ccccc3)ccc2O[C@@H]1CN(C)C(=O)NC1CCCCC1,-0.2,-6.2
C[C@@H]1CN([C@H](C)CO)C(=O)c2cc(NS(=O)(=O)c3cccs3)ccc2O[C@H]1CN(C)S(=O)(=O)c1ccccc1,1.4,4.1
CCOC(=O)CC(=O)c1ccn(C)n1,0.6,-0.6
Cc1noc(C)c1NC(=O)N(C)C[C@@H]1Oc2c(NC(=O)Nc3ccccc3)cccc2C(=O)N([C@@H](C)CO)C[C@@H]1C,.,2.5
C[C@@H]1CN([C@@H](C)CO)C(=O)c2cc(NS(=O)(=O)c3ccccc3)ccc2O[C@@H]1CN(C)Cc1ccc(C(=O)O)cc1,0.0,1.1
C=C1C(=O)O[C@H]2[C@H]1[C@H](O)CC(=C)[C@@H]1CC(=O)C(C)[C@H]21 (stereo partly drawn),-0.4,-3.9
CC(C)NC(=O)Nc1cccc2c1O[C@H](CN(C)CC1CC1)[C@@H](C)CN([C@@H](C)CO)C2=O,.,-0.9

# Look-ups from the results shown.
# COc1ccc(CNC(=S)NN)cc1 | A1 inhib: -0.1
# CC(C)NC(=O)Nc1cccc2c1O[C@H](CN(C)CC1CC1)[C@@H](C)CN([C@@H](C)CO)C2=O | BJeLR viability: -0.9
# Cc1ccc(C)c(NS(=O)(=O)c2ccccc2)c1 | BJeLR viability: 1.2
# C=C1C(=O)O[C@H]2[C@H]1[C@H](O)CC(=C)[C@@H]1CC(=O)C(C)[C@H]21 (stereo partly drawn) | BJeLR viability: -3.9

# Remaining list, next part:
SMILES,A1 inhib,BJeLR viability
CCC(C(=O)N1CCCC1)n1nc(C)c2sc3ccccc3c2c1=O (stereo not drawn),0.7,-3.2
CC(C)Cn1c(=O)n(C)c(=O)c2[nH]cnc21,-1.3,-5.0
Cc1ccc(S(=O)(=O)Nc2cccc3c2O[C@H](CN(C)Cc2ccc4c(c2)OCO4)[C@@H](C)CN([C@H](C)CO)C3=O)cc1,.,-5.7
C[C@H](CO)N1C[C@H](C)[C@@H](CN(C)S(=O)(=O)c2ccc(Cl)cc2)Oc2c(NC(=O)c3cnccn3)cccc2C1=O,.,-1.1
C=CC(C)(C)c1c2c(c(O)c3c(=O)c4ccc(O)c(O)c4oc13)C=CC(C)(C)O2,0.7,28
C[C@@H]1CN([C@@H](C)CO)C(=O)c2cccc(NC(=O)Nc3ccccc3)c2O[C@H]1CN(C)Cc1ccc(-c2ccccc2)cc1,.,-6.4
C[C@@H]1CN([C@H](C)CO)C(=O)c2cccc(NC(=O)Nc3cccc4ccccc34)c2O[C@H]1CN(C)C(=O)Nc1cccc2ccccc12,.,0.0
Cc1ccc(S(=O)(=O)C2CS(=O)(=O)c3ccccc32)cc1 (stereo not drawn),-0.5,-2.4
COc1ccc(NC(=O)Nc2ccc3c(c2)C(=O)N([C@H](C)CO)C[C@H](C)[C@H](CN(C)C(=O)Nc2ccccc2)O3)cc1,0.4,0.7
COC(=O)c1c(C)[nH]c(C)c1/C=C(\C#N)S(=O)(=O)c1ccc(Cl)cc1,-0.2,-0.7
O=C(c1ccc(Cl)cc1)N(CCS(=O)(=O)c1ccc(Cl)cc1)Cc1cccs1,0.3,-6.1
COc1ccccc1CCNC(=O)CSc1ccc(-c2ccco2)nn1,0.3,-4.7

# Reprinted at random: three entries already listed, in no set order.
SMILES,A1 inhib,BJeLR viability
CC(C)Cn1c(=O)n(C)c(=O)c2[nH]cnc21,-1.3,-5.0
O=C(c1ccc(Cl)cc1)N(CCS(=O)(=O)c1ccc(Cl)cc1)Cc1cccs1,0.3,-6.1
C[C@@H]1CN([C@H](C)CO)C(=O)c2cccc(NC(=O)Nc3cccc4ccccc34)c2O[C@H]1CN(C)C(=O)Nc1cccc2ccccc12,.,0.0

# (list continues)
SMILES,A1 inhib,BJeLR viability
COc1ccc(NC(=O)N(C)C[C@@H]2Oc3ccc(NS(=O)(=O)c4ccc(C)cc4)cc3C(=O)N([C@@H](C)CO)C[C@H]2C)cc1,-0.1,-0.6
Cc1ccc(OC(=O)c2ccccc2)c(C(C)(C)C)c1,0.9,-0.3
CNC[C@H]1Oc2c(cccc2N(C)C)C(=O)N([C@@H](C)CO)C[C@H]1C,.,9.2
Cc1noc(C)c1S(=O)(=O)Nc1cccc2c1O[C@H](CN(C)C(=O)NC(C)C)[C@H](C)CN([C@@H](C)CO)C2=O,.,-2.8
CCOC(=O)CN1C(=O)S/C(=C/c2cc(C)n(-c3cc(C)ccn3)c2C)C1=O,.,0.5
C[C@H](CO)N1C[C@H](C)[C@H](CN(C)S(=O)(=O)c2cn(C)cn2)Oc2ccc(N(C)C)cc2C1=O,0.3,0.6
CCn1c(=O)cc(N2CCN(c3ccccc3)CC2)[nH]c1=O,-0.7,-8.8
N#Cc1ccc(OCc2ccc(C(F)(F)F)cc2)c(Cl)c1,-1.3,11
O=C1/C(=C/C2CC=CCC2)SC(=S)N1CC1CCCO1 (stereo not drawn),.,-1.4
Cc1noc(C)c1NC(=O)Nc1cccc2c1O[C@H](CN(C)Cc1ccc3c(c1)OCO3)[C@H](C)CN([C@H](C)CO)C2=O,.,-4.2
O=C(Cc1c[nH]c2ccccc12)NCc1ccccc1,-1.3,-4.7
CC1(C)O[C@@H]2C[C@H]3[C@@H]4C[C@H](F)C5=CC(=O)CC[C@]5(C)[C@H]4[C@@H](O)C[C@]3(C)[C@]2(C(=O)CO)O1,0.8,29
COc1ccc(N2Cc3cccc(C(=O)NCCc4cccc(C)c4)c3C2=O)cc1,.,-4.6
C[C@H]1CN([C@@H](C)CO)C(=O)c2cc(N(C)C)ccc2O[C@@H]1CN(C)Cc1ccc(C(=O)O)cc1,-0.3,-2.8
C[C@H]1CN([C@@H](C)CO)C(=O)c2cccc(NS(=O)(=O)c3ccc(Cl)cc3)c2O[C@H]1CN(C)S(=O)(=O)c1ccccc1,.,20
Cc1ccc(CNC(=O)CN(Cc2ccccc2)S(=O)(=O)c2ccccc2)cc1,-0.3,0.7
C[C@@H]1CN([C@@H](C)CO)C(=O)c2cccc(NS(=O)(=O)c3ccc(F)cc3)c2O[C@H]1CN(C)Cc1ccc(Oc2ccccc2)cc1,.,-1.9
C[C@@H]1CN([C@@H](C)CO)C(=O)c2cccc(NC(=O)c3cnccn3)c2O[C@H]1CN(C)Cc1ccncc1,.,-3.0
Cc1ccc(C)c(NC(=O)Cn2cccc2)c1,0.2,-1.1
COC(=O)Nc1nc2ccc(-c3n[nH]c(=O)c4ccccc34)cc2[nH]1,0.2,17
COc1ccc(S(=O)(=O)N(C)C[C@H]2Oc3c(NC(=O)C4CCOCC4)cccc3C(=O)N([C@@H](C)CO)C[C@H]2C)cc1,.,-6.1
C[C@@H]1O[C@@H](O[C@H]2[C@H](O)[C@@H](O)[C@H](OC[C@H]3O[C@@H](OC(=O)[C@]45CCC(C)(C)CC4C4=CCC6[C@@]7(C)CC[C@H](O)C(C)(C)C7CC[C@@]6(C)[C@]4(C)CC5)[C@H](O)[C@@H](O)[C@@H]3O)O[C@@H]2CO)[C@H](O)[C@H](O)[C@H]1O (stereo partly drawn),0.7,125*
COC(=O)c1ccc(N(Cc2ccccc2)S(=O)(=O)c2ccccc2)cc1,1.2,-7.2
C=CCNC(=O)c1cc(-c2ccc(OC)cc2)on1,.,-3.6
CCN1/C(=C2\C(=O)N(C)C(=S)N2c2ccccc2)C=Cc2ccccc21,0.6,7.4
COc1ccccc1CC(=O)NC1CCCC1,0.0,-2.6
C[C@H](CO)N1C[C@H](C)[C@@H](CN(C)C(=O)NC2CCCCC2)Oc2ccc(NC(=O)CCN3CCOCC3)cc2C1=O,-0.1,1.0
C[C@@H]1CN([C@@H](C)CO)C(=O)c2cccc(NC(=O)C3CCOCC3)c2O[C@H]1CN(C)S(=O)(=O)c1ccc(Cl)cc1,.,-1.8
C[C@@H]1CN([C@H](C)CO)C(=O)c2cc(NC(=O)Cn3cnnn3)ccc2O[C@H]1CN(C)CC1CCCCC1,-0.4,-1.2
C[C@@H]1CN([C@H](C)CO)C(=O)c2cccc(NC(=O)Nc3ccc(C(F)(F)F)cc3)c2O[C@H]1CN(C)Cc1ccc(C(F)(F)F)cc1,.,4.8
COc1ccc(NC(=O)Nc2ccc3c(c2)C(=O)N([C@H](C)CO)C[C@H](C)[C@@H](CN(C)C(=O)NC(C)C)O3)cc1,-0.2,2.3
COc1cc(/C=C2\SC(=S)NC2=O)ccc1OCc1cccc2ccccc12,-0.6,6.7
O=C(NC1CC2CCC1C2)c1ccc(CN2CCOCC2)cc1 (stereo not drawn),0.0,-6.5
O=C(NC1CCCCC1)C1c2ccccc2C(=O)N2CCc3ccccc3C12 (stereo not drawn),.,2.6
Cc1ccc(S(=O)(=O)N(C)C[C@H]2Oc3c(NC(=O)Nc4ccc5c(c4)OCO5)cccc3C(=O)N([C@@H](C)CO)C[C@@H]2C)cc1,.,2.1
C[C@H](CO)N1C[C@H](C)[C@H](CN(C)C(=O)Nc2ccccc2)Oc2c(NC(=O)C3CCCCC3)cccc2C1=O,.,-2.5

# Entries of single compounds as entered above. Values in the order: A1 inhib | BJeLR viability
# O=C(NC1CC2CCC1C2)c1ccc(CN2CCOCC2)cc1 (stereo not drawn) in the list: 0.0 | -6.5
# C[C@@H]1CN([C@H](C)CO)C(=O)c2cc(NS(=O)(=O)c3cccs3)ccc2O[C@H]1CN(C)S(=O)(=O)c1ccccc1 in the list: 1.4 | 4.1

# New compounds follow
SMILES,A1 inhib,BJeLR viability
Cc1noc(C)c1S(=O)(=O)Nc1ccc2c(c1)C(=O)N([C@@H](C)CO)C[C@H](C)[C@H](CN(C)Cc1ccc(C(F)(F)F)cc1)O2,1.0,1.4
Cc1ccc(S(=O)(=O)Nc2ccc3c(c2)C(=O)N([C@@H](C)CO)C[C@H](C)[C@@H](CN(C)Cc2ccccc2)O3)cc1,-0.3,-0.7
Cc1noc(C)c1S(=O)(=O)Nc1cccc2c1O[C@H](CN(C)S(=O)(=O)c1ccc(F)cc1)[C@H](C)CN([C@@H](C)CO)C2=O,.,-0.8
COc1ccc(S(=O)(=O)N2Cc3ccccc3CC2C(=O)N2CCCCC2)cc1 (stereo not drawn),0.2,4.1
NC(=O)N/N=C/c1ccc([N+](=O)[O-])o1,-0.4,-1.5
Cc1nnc(SCc2ccc(F)cc2)s1,-0.5,-4.9
CSc1nc(CSc2ccc(Cl)cc2)nc(C2CC2)c1C#N,-0.9,0.8

# The list is partial; count on the stated rates, not on these rows.
